# Assay outcomes deposited in PubChem BioAssay by SRMLSC.
# H5N1 antiviral – MDCK cell protection from H5N1 avian flu; cytopathic effect, luminescence, 72 h; stronger effect = higher value; no value below 0 was filed and about half of the inactive calls have no number; reference of the scale not given here; inhibition, % at 50 µM; actives 0.07% (n = 96,000); AID 740, 2007; in the data active = inhibition above about 25%
# An asterisk follows results filed as active; i = inactive. Not all compounds are listed; the hit share may differ from the screen's.
# Preview:
SMILES	H5N1 antiviral
COc1ccccc1N1C(=O)CCC1(C#N)c1ccccc1 (configuration not stated)	2.0
Cn1c(=N)n(CC(=O)O)c2ccccc21	0.7

# The listing, from the first entry:
SMILES	H5N1 antiviral
COc1ccccc1N1C(=O)CCC1(C#N)c1ccccc1 (configuration not stated)	2.0
Cn1c(=N)n(CC(=O)O)c2ccccc21	0.7
CCN(CC)C(=O)CSc1nc2ccccc2c(=O)n1OC(C)C	0.6
CCOC(=O)c1c(CN2CCN(CCO)CC2)n(C)c2cc(Br)c(OC)cc12	i
O=c1c2ccccc2oc2nc3ccn(Cc4ccncc4)c(=O)c3cc12	3.3
CCOC(=O)N1CCC(n2c(=S)[nH]c3cc(OCC)c(OCC)cc3c2=O)CC1	i
CC1(C)CC(C(CC(=O)O)c2ccccc2)CCO1 (configuration not stated)	3.0
COC(=O)C1=C(N)N(c2ccccc2C(F)(F)F)C2=C(C(=O)CCC2)C1c1ccc2c(c1)OCO2 (configuration not stated)	i
Cn1c(=O)c(C(=O)CSc2nncs2)c(N)n(Cc2ccccc2)c1=O	0.7
CCOc1ccc(-c2cc(N)n(S(=O)(=O)c3ccc(OC)c(OC)c3)n2)cc1	0.5
O=C(N1CCOCC1)N1CCN(c2nc(-c3ccc(F)cc3)cs2)CC1	i
CC1CCC(NC(=O)Cn2c(=O)[nH]c3ccsc3c2=O)CC1 (configuration not stated)	i
CC(C)CCn1c(Sc2nc3ccccc3s2)nc2c1c(=O)[nH]c(=O)n2C	3.1
CCCN(CCC)S(=O)(=O)c1ccc(C(=O)Nc2nnc(-c3cc(OC)cc(OC)c3)o2)cc1	2.8
Cc1ccc([C@@H]2C3COCC=C3C(C#N)=C(N)C2(C#N)C#N)o1 (some centres not stated)	1.6
Cc1ccc(N2C(=O)c3ccc(N)cc3C2=O)cc1C	i
Cc1cc(NC(=O)c2cc(-c3ccccn3)nc3ccccc23)no1	0.1
CCn1c(C)nc2c1C(=O)c1ccccc1C2=O	i
CC1NC2(C(=O)N(Cc3ccccc3)c3ccccc32)C2C(=O)N(c3ccccc3)C(=O)C12 (configuration not stated)	0.2
CC(=O)Nc1cc(C(=O)OC(C(=O)c2ccccc2)c2ccccc2)ccc1C (configuration not stated)	i
Cc1ccc(OCC(=O)NC2CCCC2)c(C)c1	i
CCOC(=O)c1nnc(-c2ccc(C)cc2)nc1Oc1ccc(Cl)cc1Cl	0.6
CNS(=O)(=O)c1cccc(C(=O)Nc2cccc(Cl)c2)c1	i
CCn1cc(SCC(=O)Nc2cc(C)on2)c2ccccc21	i
COc1ccc(OC)c(CNC(=O)C2CCCN(C(=O)N(C)C)C2)c1 (configuration not stated)	i
Nc1nc(CN2CCCCCC2)nc(Nc2ccccc2)n1	i
CCc1cc2c(=O)c(Oc3ccccc3F)c(C)oc2c(CN(C)C)c1O	0.2
c1cncc(CNC2=NCCC2)c1	i
Cc1occc1C(=O)Nc1nnc(C(F)(F)F)s1	6.2
COc1ccccc1/C=C/C(=O)c1c2c(c(C)[nH]c1=O)CCCC2	17.3
N#Cc1c(-c2ccccc2)ccn(Cc2cccc(Cl)c2)c1=O	0.4
CN(C)c1ccc(CNC2CC(C)(C)NC(C)(C)C2)cc1	0.8
CN1CCN(C(=O)c2ccc(N(Cc3ccccc3Cl)S(C)(=O)=O)cc2)CC1	1.9
COCC(C)NCc1ccccc1C (configuration not stated)	i
CC12CCC(C(=O)Nc3cccc(NC(=O)C45CCC(C)(C(=O)O4)C5(C)C)n3)(OC1=O)C2(C)C	3.4
COc1ccccc1C(=O)N/C(=C/c1ccccc1)C(=O)NC(CCSC)C(=O)O (configuration not stated)	i
CCC(C(=O)N1CCN(c2cccc(Cl)c2)CC1)c1ccccc1 (configuration not stated)	0.6
COc1cccc(Cn2cnc3c(NS(=O)(=O)c4ccc(Cl)cc4)c(C)c(C)cc32)c1	0.2
CCC(CCC(=O)Nc1cccc(C(=O)O)c1)C(=O)O (configuration not stated)	i
Cc1ccc(OCC(=O)NNC(=O)c2cccnc2)cc1	i
CCCCC(c1nnnn1C1CCCC1)N1CCN(C2CCCCC2)CC1 (configuration not stated)	0.9
O=C(NCc1ccco1)c1cc(-c2ccncc2)nc2ccccc12	0.3
Cc1cccc(N=C2NC(=O)CS2)c1C	i
COc1cc(C(=O)Sc2ccc(Cl)cc2)cc(OC)c1OC	i
Cc1cc(C)cc(N(CC(=O)N2CCC(C)CC2)S(C)(=O)=O)c1	0.9
c1ccc(-c2csc(N3CCc4ccccc4C3)n2)cc1	i
CCOCCCN(Cc1ccco1)C(=O)c1cc2c(=O)[nH]c3ccc(C)cc3c2s1	2.4
CCOC(=O)Nc1ccccc1C(=O)N1CCOCC1	0.4
COc1ccc(-n2c3c(cc(C(=O)N4CCCCC4)c2=O)C(=O)CC(C)(C)C3)cc1	i
CC(C)NC(=O)N1CCOCCOCCN(C(=O)NC(C)C)CCOCCOCC1	0.8
Cc1nn(CC(O)CN2c3ccccc3Sc3ccccc32)c(C)c1Br (configuration not stated)	i
COc1ccc(N(CC(=O)NC(C)(C)C)C(=O)c2ccco2)cc1	0.7
Cc1cc(S(=O)(=O)N(Cc2ccccc2)Cc2ccc(N(C)C)cc2)ccc1-n1cnnn1	1.1
COC(=O)CN(c1nc(C)cc(OC)n1)S(=O)(=O)c1ccccc1	i
COc1ccc(N=Cc2c(O)[nH]c3ccccc23)cc1OC	i
CCOP(=O)(c1c(F)c(F)c(F)c(F)c1F)C1(O)CCCCC1 (configuration not stated)	i
Cc1noc(/C=C/N(C)C)c1S(=O)(=O)N1CCCC(C(=O)NC2CCCCC2)C1 (configuration not stated)	1.1
CCOC(=O)CCSc1nc(-c2ccc3c(c2)OCO3)cc(C(F)(F)F)c1C#N	1.3
OCCNc1nc2ccccc2[nH]1	i
CCC1CCCCN1C(=O)CSc1nc2ccsc2c(=O)n1Cc1ccccc1 (configuration not stated)	i

# Next section
SMILES	H5N1 antiviral
CCOC(=O)NCCc1ccc(OC)cc1	0.6
CCOC(=O)c1oc2ccccc2c1NC(=O)Cc1cccs1	i
Cc1ccc(NC(=O)CC2Oc3ccc(C)cc3NC2=O)cc1 (configuration not stated)	1.4
c1ccc(-c2noc(CN3CCN(C(c4ccccc4)c4ccccc4)CC3)n2)cc1	i
O=C(c1ccc2c(c1)N(Cc1ccc(F)cc1)C(=O)CS2)N1CCOCC1	0.8
COc1cc(-c2nnc(COc3ccc4ccccc4c3)o2)cc(OC)c1OC	0.3
Cc1nc2ccccc2c(=O)n1CCCO	i
O=C(Nc1ccc(-c2csc(-c3ccccc3)n2)cc1)c1ccccc1Cl	i
Cc1cc(C)cc(NC(=O)C2CCCN(S(=O)(=O)c3cnc[nH]3)C2)c1 (configuration not stated)	2.6
CCOC(=O)N1CCC(NC(=O)CS(=O)(=O)Cc2nc(-c3ccccc3C)oc2C)CC1	0.6
COc1ccc2nc(NC(=O)C3CCN(S(=O)(=O)c4cccs4)CC3)sc2c1	i
Nc1c(N2CCOCC2)cc(Cl)c2nonc12	0.2

# Two of the compounds above, with each value named:
> Cc1nc2ccccc2c(=O)n1CCCO
  H5N1 antiviral = i

> O=C(Nc1ccc(-c2csc(-c3ccccc3)n2)cc1)c1ccccc1Cl
  H5N1 antiviral = i

# (more compounds)
SMILES	H5N1 antiviral
CCC(C)Cn1c(C)nc2ccccc21 (configuration not stated)	i
CC(C)N(Cc1nc2ccccc2[nH]1)C(C)C	i
O=C(NCc1cccnc1)C1CCN(S(=O)(=O)N2CCOCC2)CC1	0.6
c1ccc2c(c1)OCC(c1csc3ncnc(N4CCOCC4)c13)O2 (configuration not stated)	0.1
COC(=O)c1cc2sccc2n1Cc1nc(-c2cccc(Cl)c2)oc1C	0.5
CCOC(=O)C1C(=O)Oc2ccc3ccccc3c2C1C1CCOC1=O (configuration not stated)	0.6
COc1ccc(-c2nnc(SCC(=O)c3cccs3)o2)cc1	i
CN(C)C(=O)Oc1c(Cl)cc(Cl)c2ccccc12	i
CC1CN(C(=O)C2CCCN2S(=O)(=O)c2ccc(Cl)cc2)CC(C)O1 (configuration not stated)	0.1
Cn1nnnc1SCCNC/C=C/c1ccccc1	0.3
O=S(=O)(Nc1cccnc1)c1ccc2c(c1)OCCO2	0.2
Cc1ccc(CSc2sc(C(=O)c3ccccc3)c(N)c2C#N)cc1	0.6

# Exported with each value named: entries from further up
O=C(NCc1cccnc1)C1CCN(S(=O)(=O)N2CCOCC2)CC1
  H5N1 antiviral: 0.6
COC(=O)c1cc2sccc2n1Cc1nc(-c2cccc(Cl)c2)oc1C
  H5N1 antiviral: 0.5
CCC(C)Cn1c(C)nc2ccccc21 (configuration not stated)
  H5N1 antiviral: i
CN(C)C(=O)Oc1c(Cl)cc(Cl)c2ccccc12
  H5N1 antiviral: i

# New compounds follow
SMILES	H5N1 antiviral
CCc1cccc(NC(=O)Cn2ncn3c(cc4ccccc43)c2=O)c1	0.6
O=C(O)c1ccccc1-c1nc2ccccc2c(=O)[nH]1	1.2
COc1ccc(OC)c(Nc2ncnc3ccccc23)c1	0.3
CCOC(=O)C1C(=O)OC(C)(C)C1C(C)C(=O)c1ccccc1 (configuration not stated)	i
CC(C)(C)NC(=O)Cn1c(SCC(N)=O)nc2ccccc21	0.7
Cc1cc(C)c(C)c(S(=O)(=O)N2CCN(Cc3nc4ccccc4[nH]3)CC2)c1C	0.9
c1coc(-c2nnc(-c3ccc4c(c3)OCO4)o2)c1	i
Cn1c(=O)n(C)c2cc([N+](=O)[O-])c(N3CCN(S(=O)(=O)c4ccc5ccccc5c4)CC3)cc21	0.3
CCN1CCN(S(=O)(=O)c2ccc(Cl)c(C(=O)Nc3nnc(CC(C)C)s3)c2)CC1	2.9
Cn1c(=O)[nH]c(=O)c2c1nc(CN1CCOCC1)n2CCc1ccccc1	0.8
C=CCNC(=O)c1onc(CSc2cccc3ccccc23)c1C(=O)O	0.8
COC(=O)c1ccccc1NC(=O)C1CCN(S(=O)(=O)c2cc(OC)ccc2OC)CC1	i
O=C(NCCO)NC(=S)c1ccccc1	2.6
CCOC(=O)c1nnn(-c2nonc2N)c1CS(=O)(=O)c1ccccc1	i
CCCN1C(=O)N(C)C(N(O)C(=O)NC)C1(C)C (configuration not stated)	i
OCc1nnn(-c2cccc(C(F)(F)F)c2)c1CO	i
O=C(c1ccc(COc2ccc(Cl)cc2)o1)N1CCN(Cc2ccc3c(c2)OCO3)CC1	i
Cc1cc(C)n(-c2cccc3cccnc23)n1	i
CC(=O)c1c(C)nc(-c2ccc(Cl)cc2)nc1N=CN(C)C	1.7
CC1(C)CC2(CCCN3C(=O)CSC32)CCS1 (configuration not stated)	0.6
Cc1cccc(N2C(=O)N(c3ccccc3C)C3CS(=O)(=O)CC32)c1 (configuration not stated)	0.6
Cc1nn(Cc2c(F)c(F)c(F)c(F)c2F)c(C)c1NC(=O)c1c([N+](=O)[O-])cnn1C	0.4
Cc1ccccc1NC(=O)CC1SC(=O)N(c2ccccc2)C1=O (configuration not stated)	i
Cc1nc2scc(-c3ccc(Cl)cc3)c2c(=O)o1	i
CCN(Cc1nc2ccccc2c(=O)[nH]1)Cc1cc(=O)oc2cc(OC)ccc12	2.5
CC(C)CNC1=CC(=O)CC(c2ccco2)C1 (configuration not stated)	0.2
CCN(CC)c1ccc(NC(=O)Cn2nnc(-c3cccc(OC)c3OC)n2)c(C)c1	i
COC(=O)c1cccc(NC(=O)CCSc2ccc(Cl)cc2)c1C	1.3
O=c1oc2c(CN3CCOCC3)c(O)ccc2c2c1CCC2	i
O=C(CN1CCN(Cc2ccc(F)cc2Cl)C1=O)NCCCN1CCOCC1	0.2
CC1=C(C(=O)Nc2ccccc2C)C(c2cccnc2)n2nc(CCCO)nc2N1 (configuration not stated)	i
O=C(NCCC1=CCCCC1)C(=O)NCc1ccccc1Cl	i
COc1ccc(NC(=O)C2CC(=O)N(C(C)C)C2)cc1 (configuration not stated)	i
CCOc1ccccc1N1CCN(S(=O)(=O)c2ccc(Cl)s2)CC1	0.3
CCCCOCC1CN(c2ccccc2)C(=O)CS1 (configuration not stated)	i
O=C(COc1ccc2ccccc2c1)NCC(=O)N/N=C/c1ccco1	1.2
CCCCN(C)CCNC(=O)c1ccc2c(c1)NC(=O)C(N1CCCCC1)S2 (configuration not stated)	i
COc1ccc(CCNC(=O)CN2C(=O)C3(OCCCO3)c3ccccc32)cc1OC	2.2
O=C(CSc1nnc(-c2ccc(Br)cc2)o1)N1CCN(C(=O)c2ccco2)CC1	i
CCOC(=O)c1ccc(NC(=O)c2ccc(CO)c(C(=O)NC3CCN(C(=O)OCC)CC3)c2)cc1	i
Cc1ccc(CNC(=O)c2cc3c(C)nc4ccccc4c3o2)cc1	0.6
CCOc1ccccc1CNC(=O)C1CCN(C(=O)c2sccc2-n2cccc2)CC1	i
CCOC(=O)N1CCN(Cc2nc(-c3ccccc3)no2)CC1	i
C=CCNC(=O)c1nn2cccnc2c1Cl	1.4
CN1CCN(C(=O)COc2ccc(-c3nc4ccccc4s3)cc2)CC1	i
CC(=O)N1N=C2C3CCN(CC3)C2C1c1ccccc1 (configuration not stated)	i
CCCN1C(=O)CC(C(=O)OC)=C1C	i
O=C(NCCNS(=O)(=O)c1cccc(C(F)(F)F)c1)c1cc(OCC(F)(F)F)ccc1OCC(F)(F)F	i
COc1cccc(C(=O)N(Cc2nc(-c3cccc(C)c3)no2)C(C)C)c1OC	0.5
O=C(Cn1c(NCCO)nc2ccccc21)c1ccc(Cl)cc1	i
